Biofilm kill mix: mixture kills Candida albicans biofilm cells; C. albicans biofilm persisters + clotrimazole, fluorescence viability; primary screen in compound mixtures of four per well; inhibition, % at 7.6 µM; 120,000 compounds, 0.02% hits; AID 1242;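 active = inhibition above 30.3% in the primary screen of four-compound pools, then above 30% when the compound was retested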;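 also: compounds exposed to preformed 24 h biofilms for 48 h; the number belongs to the whole pool; some results filed as inactive read as strong as hits; inactives centre near 12; 0% = biofilm with clotrimazole alone and 100% = kill control; retested singly at about 60 µM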
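Test system: C. albicans CAF4-2 wild-type biofilms; buffer or medium: RPMI/MOPS medium, pH 7.0; schedule: 24 h biofilm formation, then 48 h compound exposure, 37 °C; detection: Alamar Blue fluorescence; measure: percent inhibition of biofilm viability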
The depositor's hits bear a star. These rows are one share of the data; rates above refer to the full screens.

SMILES | Biofilm kill mix
COc1ccc(NC(=S)NCC2CCN(c3ccc(OC)cc3)C2)cc1 (centres undefined) | 16
CN(C)/C=N/c1ncn(-c2ncc(C(F)(F)F)cc2Cl)n1 | 12
O=C(CCc1ccccc1)Nc1cccnc1Cl | 32
Cc1cc(Cl)c(S(=O)(=O)Nc2cccc(O)c2)cc1OCC(N)=O | 17
O=C(Nc1ccc([N+](=O)[O-])cc1Br)c1cc2ccccc2nc1Cl | 6
COc1cc(NC(=O)Cn2nc(C(F)(F)F)c(Br)c2C)cc([N+](=O)[O-])c1 | 19
CCOC(=O)N1CCC(NC(=O)c2cc(S(=O)(=O)NCCc3ccccc3)ccc2F)CC1 | 8
COc1ccc2c(CCNC(=O)CN3C(=O)c4ccccc4C3=O)c[nH]c2c1 | 10
CCOC(=O)c1c(N)sc(C(=O)OCCOC)c1C | 11
Cc1[nH]c2ccccc2c1C1C(c2ccccc2)=NN=C(C(C)C)N1O (centres undefined) | 10
CCCSc1cc(N)cc([N+](=O)[O-])c1 | 4
Cc1ccc(N=Nc2ccc(N)cc2C)c(S(N)(=O)=O)c1 | 21
COc1cc(NC(=O)CN2C(=O)NC(c3ccccc3)(c3ccccc3)C2=O)c(C)cc1[N+](=O)[O-] | 16
CCOC(=O)c1c(NC(=O)C2CCCO2)sc(C(N)=O)c1C (centres undefined) | 10
Cc1ccc(-c2csc(NC(=O)C3=COCCO3)n2)cc1 | 11
COc1ccc(NS(=O)(=O)c2ccc(C)c(NC(=O)NC3CCCCC3)c2)cc1 | 1
CC1=CC(C)(C)N2C(=O)C3(NCCc4c3[nH]c3ccccc43)c3cccc1c32 (centres undefined) | 15
O=C(OCc1cc(=O)n2c(n1)sc1ccccc12)c1cccc(O)c1 | 8
CCC(CC)NC(=O)c1oc2ccccc2c1COc1ccccc1 | 13
CCOC(=O)CNc1nc(Oc2ccc(=O)n(C)n2)nc(N(CC)CC)n1 | 25
O=c1[nH]c(/C=C/c2ccc(Br)cc2)nc2c1cnn2-c1ccccc1 | -32
Cc1sc2nc(CC(N)=O)[nH]c(=O)c2c1-c1ccccc1 | 7
O=C(Nc1ncccn1)c1cc([N+](=O)[O-])cc([N+](=O)[O-])c1 | 17
COc1ccc(NC(=S)NC(=O)c2csnn2)cc1 | 12
CCOC(=O)c1c(NC(=O)C(C)Sc2cccc[n+]2[O-])sc2c1CCN(Cc1ccccc1)C2 (centres undefined) | 17
Cn1ncc(Br)c1C(=O)N/N=C/c1cccc(OC2CSC2)c1 | 12
O=[N+]([O-])c1cc(C(F)(F)F)cc([N+](=O)[O-])c1NCCCN1CCOCC1 | 17
COc1ccc2c(c1OC)C(=O)N1N=C(c3ccc(F)cc3)CC21 (centres undefined) | 6
O=C(CSc1nnc(CNC(=O)c2ccccc2F)o1)Nc1ccc2c(c1)OCO2 | 23
Cc1onc(-c2c(F)cccc2Cl)c1C(=O)N1CCOC12CCCCC2 | 1
O=C(CSc1cn(CC(=O)N2CCCCCC2)c2ccccc12)NCC1CCCO1 (centres undefined) | 12
CC1(c2ccccc2)NC(=O)N(Cc2ccc([N+](=O)[O-])cc2)C1=O (centres undefined) | 14
CCOC(=O)c1cnn2cc(-c3[nH]ncc3[N+](=O)[O-])cnc12 | 14
CCc1ccccc1NC(=S)NCC1CCN(c2ccc(OC)cc2)C1 (centres undefined) | 23
CCc1ccc(NC(=S)Nc2ccc3[nH]c(=O)[nH]c3c2)cc1 | 25
O=C(Cc1coc2cc3c(cc12)CCC3)NCC1(N2CCCCC2)CCCCC1 | -2
COc1ccccc1C(=O)Nc1nc(-c2ccc3c(c2)OCCO3)cs1 | 15
COc1ccc(C(=O)O)nc1C | 10
O=C(/C=C/c1ccco1)N1CCN(S(=O)(=O)/C=C/c2ccccc2)CC1 | 10
Oc1[nH]c2ccccc2c1N=Nc1ccc(F)cc1 | 16
COc1nccnc1NS(=O)(=O)c1ccc(N=Cc2c(C)[nH]n(-c3ccccc3)c2=O)cc1 | 9
COc1ccc(Cl)cc1-c1nc(SCC(=O)NC(C)C(C)C)n[nH]1 (centres undefined) | 14
NC(=O)CSC1=N/C(=C\c2ccco2)C(=O)N1c1ccc(OC(F)F)cc1 | 13
Cc1ccc2c(c1)cc(CN(Cc1ccco1)C(=O)N1CCOCC1)c1nnnn12 | 8
O=c1[nH]c(-c2ccc(O)cc2)nc2scc(-c3cccs3)c12 | 18
COCCNC(=S)NNC(=O)c1cccs1 | 21
COc1cc(CC(=O)N(c2ccccc2)c2nc(C)cs2)cc(OC)c1OC | 11
OCCC1CN(Cc2cnn(-c3ccc(F)cc3)c2)CCN1Cc1ccsc1 (centres undefined) | 11
O=C(CC12CCC(CC1)C2)NCc1ccc2c(c1)OCO2 | 21
COc1ccc(C(=O)NC(=S)Nc2ccc(Cl)cn2)cc1OC | 16
CCCCOC(=O)c1ccc(Nc2ccc([N+](=O)[O-])cn2)cc1 | 14
CC1=C(C(=O)OC2CCCC2)C(c2coc3ccc(C)cc3c2=O)C2=C(CCCC2=O)N1 (centres undefined) | 3
CC(C)(C)C1CCC(C(=O)Nc2cccnc2)CC1 (centres undefined) | 3
Cc1cccc2nc(CSC(=N)N)c(Br)n12 | 24
C=CCOC(=O)C1=C(C)Nc2[nH]c(=O)[nH]c(=O)c2C1c1ccccc1 (centres undefined) | 4
C=CCN(CC=C)CCOc1ccc2ccccc2c1 | -1
Cc1cc(C)nc(N/N=C/c2ccccc2OCc2ccc(Br)cc2)n1 | 33
O=[N+]([O-])/C(C(Cl)=C(Cl)Cl)=C(/Sc1ccccc1)N1CCCCC1 | 9
Cc1ccc(/C=N/N2CCN(C3c4ccccc4-c4ccccc43)CC2)o1 | 24
CCOC(=O)C(C)(C)Sc1nc2c(cnn2-c2ccc(C)cc2)c(=O)[nH]1 | 5

(cont.)
SMILES | Biofilm kill mix
Cn1c(-c2ccc(Cl)cc2)cnc1NCc1cc2c(cc1[N+](=O)[O-])OCO2 | 6
COc1ccc(CC(=O)OCC(=O)Nc2ccc3c(c2)OCCO3)cc1OC | 5
CCOC(=O)Cc1nnc(Nc2ccc(C(=O)NC)cc2)c2ccccc12 | 23
C/C(CC(=O)Nc1ccccn1)=N\NC(=O)c1cnccn1 | 30
O=C(NC(=S)Nc1ccc(S(=O)(=O)Nc2nccs2)cc1)c1ccc(Br)o1 | 19
CN(C)S(=O)(=O)c1ccc(Cl)c(NC(=O)CN2CCNC(=O)C2)c1 | 0
Nc1ccccc1C(=O)N=Nc1[nH]c(N)c2ccccc12 | 8
CC(=O)Nc1cccc(OCc2ccc(S(=O)(=O)Cc3ccccc3)cc2)c1 | 0
N#Cc1c(-c2ccc(Cl)cc2)c(C#N)c(=O)n(N)c1N | -8
CO/N=C1\CCCc2c(C(=O)NN)sc(SC)c21 | 14
CS(=O)(=O)N(CC(=O)NCc1ccco1)c1ccc(Cl)cc1Cl | 27
CC1CCN(Cc2ccc(-c3nnn(CC(=O)NC4CCCCC4)n3)cc2)CC1 | 11
Cn1ncc2c(NCc3cccc(C(F)(F)F)c3)c(C(=O)O)cnc21 | 14
Cc1ccc(S(=O)(=O)N2CCCCC2C(=O)O)cc1 (centres undefined) | 28
COc1ccc(/C=N\Nc2ncc(F)c(N3CCOCC3)n2)cc1OC | 15
CCn1nc(C)c(CCC(=O)O)c1C | 9
O=C(NNC(=O)c1ccc(Cl)cc1Cl)c1csc(-c2cccnc2)n1 | 15
COc1cc(-c2nc3cccc(C)n3c2NCC2CCCO2)ccc1O (centres undefined) | 23
N=C1/C(=C/c2cccn2-c2cccc([N+](=O)[O-])c2)C(=O)N=C2SC=CN12 | -1
COc1ccc(CC(=O)NC(=S)Nc2ccc(S(N)(=O)=O)cc2)cc1 | 9

The final 6 records of the part above are carried over, then new ones follow.
SMILES | Biofilm kill mix
COc1ccc(/C=N\Nc2ncc(F)c(N3CCOCC3)n2)cc1OC | 15
CCn1nc(C)c(CCC(=O)O)c1C | 9
O=C(NNC(=O)c1ccc(Cl)cc1Cl)c1csc(-c2cccnc2)n1 | 15
COc1cc(-c2nc3cccc(C)n3c2NCC2CCCO2)ccc1O (centres undefined) | 23
N=C1/C(=C/c2cccn2-c2cccc([N+](=O)[O-])c2)C(=O)N=C2SC=CN12 | -1
COc1ccc(CC(=O)NC(=S)Nc2ccc(S(N)(=O)=O)cc2)cc1 | 9
O=C1CSC(c2ccncc2)N1Cc1ccc(F)cc1 (centres undefined) | 1
Clc1ccc(-c2nc3ncccn3c2Cl)cc1 | 4
CCCNC(=O)c1nnsc1Sc1ccc(Cl)cc1 | 16
CCOC(=O)c1c(N)sc(C(=O)Nc2ccccc2)c1C | 9
CCn1c(N2CCN(S(=O)(=O)c3ccc(Cl)cc3)CC2)nc2ccccc21 | 7
CCOc1cc(/C=N/O)ccc1OCc1ccc(F)cc1 | 15
O=C(CSc1nc2cc(C(F)(F)F)ccc2n1Cc1ccccc1)NC1CCS(=O)(=O)C1 (centres undefined) | 13
O=C(Nc1ccc2oc(-c3ccccc3F)nc2c1)c1ccco1 | 0
CCOC(=O)C1(CC2CC2)CCN(Cc2cc(Cl)c(O)c(OC)c2)CC1 | 12
NC(=S)NNc1cccc2cccnc12 | 21
COc1ccc(-c2noc(CCC(=O)NCC3CCCO3)n2)cc1 (centres undefined) | 1
CC(=O)OCC[n+]1c(C)n(-c2ccccc2)c2ccc(Cl)cc21 | 2
Cc1cccc(C)c1NC(=O)Nc1ccccc1-n1ccnc1 | 7
Cc1ccc(C2=NN(C3=NN=C(N)Cc4ncnn43)C(O)(C(F)(F)F)C2)cc1 (centres undefined) | 15
Nc1nc(NCc2ccco2)nc(N2CCCCC2)c1[N+](=O)[O-] | 13
Cc1ccnc2nc(C(=O)OCCOc3ccc(Cl)cc3)nn12 | 10
Oc1ccccc1C1CC(c2cccs2)=NC(c2cccc(Br)c2)N1 (centres undefined) | 18
C/C(=N\N1C(=O)c2ccccc2NC1c1ccccc1)c1ccccc1O (centres undefined) | 7
COc1ccc2[nH]c(CN3CCN(C(C)C)C(CCO)C3)c(C)c2c1 (centres undefined) | 13
CC1CCCCN1C(=O)Nc1cccc(C(F)(F)F)c1 (centres undefined) | 17
Cc1ccc(N2C(=O)CN(Cc3cccs3)C2=S)cc1C | 20
O=S1(=O)C[C@@H]2N=C(N/N=C/c3ccccc3)S[C@@H]2C1 | 11
CCCCNC(=S)NNC(=O)c1nn(C)c(C)c1Cl | 5
Cc1ccc(NC(=O)CSCC(=O)NC2CCCCC2)cc1 | 18
CCN(CC)CC(=O)NN(Cc1ccccc1)c1ccccc1 | 22
CCn1nc(C)c(NC(=O)/C=C/c2ccc(OC)c(COc3ccc(Cl)cc3Br)c2)c1C | 16
Cc1ccc(-c2n[nH]c3c2C(c2cccc(O)c2)N(c2ccc(C(=O)O)cc2)C3=O)cc1 (centres undefined) | 11
CC(C)CC(=O)NC1(C(F)(F)F)C(=O)N(CC(C)C)C2=C1C(=O)CC(C)(C)C2 (centres undefined) | 15
COCc1ccc(CN2CCCC(CO)(Cc3ccccc3)C2)o1 (centres undefined) | 22
COC(=O)CSc1nnc2cc(C)c3ccccc3n12 | 16
CCSc1nc2sc3c(c2c(=O)n1-c1ccc(OC)cc1)CCN(C)C3 | 23
CCOC(=O)c1c(C)[nH]c(C)c1C(=O)COC(=O)/C=C/c1ccc(Cl)cc1 | 1
Cc1ccc(-c2cc3nc(-c4ccccc4)cc(N4CCOCC4)n3n2)cc1 | -4
COc1ccccc1NC(=S)N(Cc1cccs1)C1CCCC1 | 17
O=Cc1cnc(N2CCN(Cc3ccccc3)CC2)s1 | 11
O=C(COC(=O)c1cccc(C(F)(F)F)c1)NCc1ccc(Cl)cc1 | 12
c1cc(-c2ccncc2)ccn1 | 21
CN(CC(=O)NC1CCN(Cc2ccccc2)CC1)S(=O)(=O)c1ccc2c(c1)c(=O)n(C)c(=O)n2C | 3
C=C(C)C1CC=C(C)/C(=N/NC(=O)COc2ccccc2Cl)C1 (centres undefined) | 6
CN1CCN(c2nc(-c3ccccc3)nc(-c3ccc(F)cc3)c2C#N)CC1 | 12
Cc1ccc(N=Nc2c(O)[nH]c3ccc(F)cc23)cc1 | 14
O=C1N(Cc2cccnc2)C[C@@H]2C[C@@H](c3cccc(Oc4ccccc4)c3)N3CCC[C@@]123 | 12
CN(C)CCCn1c(N)c(C#N)c2nc3ccccc3nc21 | 14
CC(Oc1ccccc1)c1ccnc2nc(N3CCOCC3)nn12 (centres undefined) | -24
CCCNC(=O)c1cccc(Br)c1 | 11
COc1cc(NC(=O)CSc2nnc3c(n2)[nH]c2ccc(S(=O)(=O)NC(C)C)cc23)cc(OC)c1OC | 16
CCCCCCCCCc1nc2sc3c(c2c(=O)n1NC(=O)c1ccc([N+](=O)[O-])cc1)CC(C)(C)OC3 | 3

Another view of some results above.
mol: O=C1N(Cc2cccnc2)C[C@@H]2C[C@@H](c3cccc(Oc4ccccc4)c3)N3CCC[C@@]123
- Biofilm kill mix: 12
mol: CCCNC(=O)c1cccc(Br)c1
- Biofilm kill mix: 11
mol: CC(Oc1ccccc1)c1ccnc2nc(N3CCOCC3)nn12 (centres undefined)
- Biofilm kill mix: -24
mol: CCCCCCCCCc1nc2sc3c(c2c(=O)n1NC(=O)c1ccc([N+](=O)[O-])cc1)CC(C)(C)OC3
- Biofilm kill mix: 3
